NPYLR7 ag – mosquito NPYLR7 agonism; activation, % at 10 µM; HEK293T NPYLR7/Galpha15, GCaMP6s calcium fluorescence; 0.15% of 270,000 active; in the data active = activation above about 40%;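 note: 0% = vehicle and 100% = reference agonist at the receptor; some compounds past the cut are filed as inactive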
NPYLR7 ag max-min – second read-out of NPYLR7 ag, no call of its own (marks repeat the call); activation, %; measured here: Max-Min RFU normalised activation; some inactives read as strong as hits;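 span of the calcium signal over five minutes; 0% = vehicle and 100% = native peptide agonist; compound fluorescence can raise it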
Active calls of the source: *; & = joins results of further samples. The list is partial; rates above refer to the full screens.

SMILES | NPYLR7 ag | NPYLR7 ag max-min
COc1ccc(C2CC(C(F)(F)F)n3nc(C(=O)NCCN4CCOCC4)cc3N2)cc1 (stereo not drawn) | 0 | 3
COc1cc(-c2[nH]ncc2CN2CCCC2c2nonc2C)cc(OC)c1OC (stereo not drawn) | -3 | -6
O=C(NCC1CCCN(C2CCN(c3ccc(F)cc3)CC2)C1)c1cccs1 (stereo not drawn) | 0 | -4
CC(Sc1nnc(NC2CC2)s1)C(=O)N1CCNC1=O (stereo not drawn) | 1&0 | -1&2
O=C(CSc1ncnc2sc3c(c12)CCC3)Nc1ccccc1C(F)(F)F | -7 | -10
O=C(NCc1cccc(Cl)c1Cl)c1cncn1-c1cccc(-c2cccc(OC(F)(F)F)c2)c1 | 5 | 2
N[C@H](Cc1ccccc1)C(=O)O | 5 | 6
Cc1ccc(F)c(C(=O)N2CCN(C(c3ccccc3)c3ccc(Cl)cc3)CC2)c1F (stereo not drawn) | 21 | 4
Cc1cccc(NC2=C([N+](=O)[O-])CS(=O)(=O)C2)c1 | -7 | -12
O=C(c1cc(Cl)ccc1Cl)N1CCN(c2ccc3nnc(-c4ccco4)n3n2)CC1 | 3 | -1
COc1cc(C)c(NC(=O)C=Cc2cc3c(cc2[N+](=O)[O-])OCO3)cc1OC | 1 | 0
COc1ccc(N(Cc2nnc3n2CCCCC3)C(=O)Nc2cccc(OC)c2)cc1 | -4 | -5
CC1(C)CC(=O)C=C(C(=O)N2CCC(O)(c3ccc(Br)cc3)CC2)O1 | 9 | 11
CCCN(C(=O)CC)C(c1ccc(F)cc1)c1cccnc1 (stereo not drawn) | -5 | -7
Cc1cccc(C)c1N=C1NC(=O)/C(=C/C2=Cc3ccccc3OC2)S1 | 7 | 4
Cc1cc(NCC2Cc3ccccc3O2)nc(C)n1 (stereo not drawn) | 1&-4 | -2&-5
Nc1ncnc2sc3c(c12)CCN(C(=O)CC(NC(=O)c1ccccc1Cl)c1ccccc1)C3 (stereo not drawn) | 5 | 2
CC(=O)Nc1cccc(-c2nccc(N3CCCC(O)C3)n2)c1 (stereo not drawn) | 0 | 1
CC1CCCN1C(=O)c1ccc(-c2ccc(F)c(F)c2)s1 (stereo not drawn) | 1 | 16
CC(=O)c1c(C)nn(CCC(=O)N2CCCC(O)(CN(C)C)C2)c1C (stereo not drawn) | -3 | -7
O=C1CC2CS(=O)(=O)CC2N1c1cccc(Cl)c1 (stereo not drawn) | -2 | 18
CCN(CC1CCCO1)c1ncnc2scc(-c3ccccc3)c12 (stereo not drawn) | 1 | -1
Cn1ccnc1C(NC(=O)C1CCN(S(=O)(=O)c2ccccc2F)CC1)c1cccc(F)c1 (stereo not drawn) | 3 | 10
CCC(C)(C)NCC(=O)Nc1ccc(C)c(S(=O)(=O)N2CCCCC2)c1 | 0 | 12
O=C(NC1CCCCC1)N1CCN(C(=O)c2ccco2)CC1 | -8 | -13

Grouped by structure: the entries above with a CF3 group.
SMILES | NPYLR7 ag | NPYLR7 ag max-min
COc1ccc(C2CC(C(F)(F)F)n3nc(C(=O)NCCN4CCOCC4)cc3N2)cc1 (stereo not drawn) | 0 | 3
O=C(CSc1ncnc2sc3c(c12)CCC3)Nc1ccccc1C(F)(F)F | -7 | -10
O=C(NCc1cccc(Cl)c1Cl)c1cncn1-c1cccc(-c2cccc(OC(F)(F)F)c2)c1 | 5 | 2

Other results
SMILES | NPYLR7 ag | NPYLR7 ag max-min
CC(C)CN1CC(OC(=O)NC2CCCCC2)CN(C(=O)c2ccccc2)CC1=O (stereo not drawn) | 3 | 15
CCOC(=O)c1ccc(OC2CC3CCC(C2)N3C(=O)c2ccc(CSCc3ccccc3Cl)cc2)cc1 (stereo not drawn) | 8 | 3
CC(C)COc1ccc(C(=O)Nn2cnnc2)cc1 | 0 | 4
Cc1cc(C)c(S(=O)(=O)NCc2nnc3nc(C)cc(C)n23)c(C)c1 | 2 | 3
CSc1oc(-c2cccs2)nc1S(=O)(=O)c1ccccc1 | 3 | 1
CCNC(=O)COc1ccc(CNCC2CN(C)CCO2)cc1 (stereo not drawn) | 2 | 1
COCCN(Cc1cccc(OS(C)(=O)=O)c1)C(=O)c1ccc([N+](=O)[O-])cc1Cl | -8 | -8
Cc1ccc(N2CCn3c2nc2c3c(=O)n(CCN3CCOCC3)c(=O)n2C)cc1Cl | -1 | -4
COc1c(F)cccc1C(=O)N(C)Cc1nc(-c2ccccn2)no1 | 1 | -3
Cc1nn(C2CCS(=O)(=O)C2)c2nc(-c3ccccc3)cc(C(=O)N3CCCCCC3)c12 (stereo not drawn) | 3 | 8
COc1ccc(-c2cnc3c(NC=O)cc(-c4ccccc4)cn23)cc1OC | 0 | -3
CCOC(=O)c1c(C)n(-c2ccc(Cl)cc2)c2ccc(OC(=O)/C=C/c3ccccc3)cc12 | -7 | -11
CCc1nn(-c2ccc(Cl)cc2)c(CC)c1C(=O)Nc1ccc(F)cc1 | -15 | -9
Clc1nc2ccccc2nc1N1CCOCC1 | 0 | -3
COCCn1c(C2CC(=O)N(c3cc(Cl)ccc3OC)C2)nc2ccccc21 (stereo not drawn) | -1 | 0
CCC(CC)C(O)CNC(=O)CN1CCCC1C (stereo not drawn) | -4 | -6
Cc1nc(-c2ccncc2)ncc1C(C)NCc1[nH]c2ccccc2c1C (stereo not drawn) | 13 | 5
COc1cc(S(=O)(=O)NC(C)C)c(OC)cc1Cl | 6 | 3
CC(NS(=O)(=O)c1cccc2nsnc12)c1ccc(F)c(F)c1 (stereo not drawn) | 9 | 9
CCN(CC)C(=O)N1CCN(Cc2ccnc(Cl)c2)CC1 | 1 | -1
CN(C)C=Nc1cnn(-c2ccccc2)c(=O)c1Cl | 7 | 5
C=CCN(CC(=O)N1CCc2sccc2C1COc1ccc(Cl)cc1)CC(O)COCC (stereo not drawn) | 5 | 4
O=C(OCC(=O)N1CCN(c2ccccc2)CC1)c1cccc(-n2cnnn2)c1 | 3 | 0
Cn1cccc1C1CC(c2ccccc2Cl)=NN1C(=O)CN1CCC2(CC1)OCCO2 (stereo not drawn) | -2 | 10
O=C1c2cc(N3CCOCC3)c([N+](=O)[O-])cc2C(=O)N1c1cccc2c1CCCC2 | -3 | -7

New compounds follow
SMILES | NPYLR7 ag | NPYLR7 ag max-min
CN(CC1CCN(CCc2ccc(Cl)cc2)CC1)C(=O)[C@@H]1C[C@H]1c1ccccc1 | 13 | 4
CCCCC(=O)N(CCCOC)CC(=O)N(CCc1c[nH]c2ccccc12)Cc1ccc(OC)c(OC)c1 | 16 | 14
C=C1c2ccccc2C(=O)N1CCC(=O)Nc1ccc(Cl)cc1Cl | 2 | 2
CC1=NN(C(=O)CC#N)C(O)(c2ccc(Cl)cc2)C1 (stereo not drawn) | -2 | -4
CC(=O)OC(C(=O)N1CCN(c2nccc(-c3ccc(N4CCOCC4)cc3)n2)CC1)c1ccccc1 (stereo not drawn) | 8 | 6
CC(N)=C(C#N)C(=O)COC(=O)C(CC(C)C)NC(N)=O (stereo not drawn) | 4 | 5
CC(C)CCn1c(-c2nnc(C(C)C)o2)cc2ccccc21 | 2 | 2
CC1(c2ccc(Br)cc2)NC(=O)N(CC(=O)Nc2ccc(C(N)=O)cc2)C1=O (stereo not drawn) | -3 | -5
O=C1CN(c2cccc3ccccc23)C(=O)CN1c1cccc2ccccc12 | -4 | -6
C=CCSc1nnc(NC(=O)c2ccc(CCCCC)cc2)s1 | 12 | 15
CNC(=O)c1cnc(/C=C/c2csc(-c3ccco3)n2)s1 | 8 | 4
CCOC(=NC(C)CCCN(CC)CC)NC(=O)c1ccc(Cl)c(Cl)c1 (stereo not drawn) | -6 | -5
Cc1ccccc1SCC(=O)Nc1c(F)cccc1-n1cncn1 | 0 | 0
CCOC(=O)C1=C(C)NC2=C(C(=O)CC(c3ccccc3)C2)C1c1cccc(OC)c1 (stereo not drawn) | -2 | -8
COc1ccc(-n2c(-c3ccccc3)cc(C(=O)NCCCN3CCCCC3C)c2C)cc1OC (stereo not drawn) | 11 | 11
COCCN(CC1CCN(Cc2ccccc2F)CC1)C(=O)c1cc2cc(F)ccc2[nH]1 | 9 | 6
COCCNC(=O)c1cccc(CSc2nc(C)c(C)c(N3CCN(c4cccc(C(F)(F)F)c4)CC3)n2)c1 | -1 | -2
CCN(CC)C(=O)Oc1ccc2c(ccn2Cc2ccc(Cl)cc2)c1-c1cc(F)cc(F)c1 | 3 | 0
CCNc1cc(C)c(C)cc1-n1cnc(-c2ccc([N+](=O)[O-])cc2)c1 | -1 | -6
CCC(NC(=O)c1c(-c2ccccc2Cl)noc1C)C12CC3CC(CC(C3)C1)C2 (stereo not drawn) | 1 | -1
CCCCn1c(O)c(C=C2C=Nc3ccccc32)c(=O)[nH]c1=O | 6 | 2
Cc1cc(C)n(CC(C)NC(=O)c2cc(CN3CCC(O)CC3)on2)n1 (stereo not drawn) | 40 | 27
Cc1ccc(Cn2c(Sc3ncccn3)nc3c2c(=O)[nH]c(=O)n3C)cc1 | 3 | 1
O=S(=O)(NCc1ccco1)c1cccs1 | 4 | 12
O=C(c1cnc(-c2ccccc2)[nH]1)N1[C@H]2CCNC[C@@H]1CC2 | -4&3 | 4&1

Entries of single compounds, quoted from the list.
Results for CC1(c2ccc(Br)cc2)NC(=O)N(CC(=O)Nc2ccc(C(N)=O)cc2)C1=O (stereo not drawn) → NPYLR7 ag: -3; NPYLR7 ag max-min: -5
Results for CC(C)COc1ccc(C(=O)Nn2cnnc2)cc1 → NPYLR7 ag: 0; NPYLR7 ag max-min: 4
Results for CCNC(=O)COc1ccc(CNCC2CN(C)CCO2)cc1 (stereo not drawn) → NPYLR7 ag: 2; NPYLR7 ag max-min: 1

The listing continues:
SMILES | NPYLR7 ag | NPYLR7 ag max-min
N#CC(C(=O)CCc1ccccc1F)c1nnc2n1CCCCC2 (stereo not drawn) | 19 | 15
Cn1cc(C#N)c(=O)n(CC(=O)c2ccc(N3CCCC3=O)cc2)c1=O | 10 | 10
O=C(NC1CCCc2c1cnn2-c1ccc(F)cc1F)c1c(F)cccc1Cl (stereo not drawn) | -6 | -6
Cc1cccc(-c2ccnc3nc(N4CCN(C(=O)C(Cl)Cl)CC4)nn23)c1 | 1 | -2
COc1cccc(CN(CC(O)COCc2ccco2)CC2CC(c3ccccc3F)=NO2)c1 (stereo not drawn) | -3 | 2
COc1ccccc1-c1cc(CNCC(=O)Nc2cccc(C)c2C)on1 | 7 | 5
Cc1c(CSc2nnc(N)s2)noc1-c1ccc(F)cc1 | 3 | 1
CCOC(=O)c1cc(-c2cccc(NC(=O)[C@@H]3C[C@H]3c3ccccc3)c2)n(-c2ccccc2F)n1 | 27 | 12
CCS(=O)(=O)N1CCN(c2nc(-c3ccccc3)nc(COC)c2Cc2cc(C)ccc2C)CC1 | 6 | 13
CO[C@H]1CN(c2nc(-c3ccccc3)ccc2C(=O)O)CC[C@H]1N | 13 | 10
CN(C)CCOc1cccc(CNC(=O)c2ccc(C(C)(C)C)cc2)c1 | 8 | 7
COC(=O)Cn1c(=O)c2c(nc3n2CCCN3c2ccc(OC)cc2)n(C)c1=O | 2 | -1
COc1ncncc1NC(=O)Cc1ccc(F)cc1 | 0 | 0
Cn1c(=O)c2c(ncn2CC(=O)OCC(=O)c2ccc[nH]2)n(C)c1=O | 0 | 21
CC(C)(C)c1ccc(C(O)CCCN2CCC(C(O)(c3ccccc3)c3ccccc3)CC2)cc1 (stereo not drawn) | 0&-4 | -13&-8
CCCSCC(=O)Nc1c(C)c(C)nn1-c1ccc(C#N)cc1 | 2 | 1
Cc1cc(Cl)c2oc(C(=O)N3CCN(C(=O)c4ccco4)CC3)c(C)c2c1 | 3 | 1
O=C(Nc1ccc(N2CCOCC2)nc1)C1CCCCC1 | 0 | -1
N#Cc1nncn1CN1CCN(S(=O)(=O)c2ccc(Br)cc2Cl)CC1 | 4 | 6
C=CCOc1ccc(CN(C)c2cc(=O)n3ccccc3n2)cc1 | 0 | -1
C=CCN=c1scc(-c2ccc(Cl)c(Cl)c2)n1N=Cc1cccnc1 | 12 | 8
Cc1[nH]n(-c2nc3ccccc3[nH]2)c(=O)c1C | -15 | -22
COc1ccccc1-c1ccc2c(c1)C(C)(Cc1ccc3c(c1)OCO3)C(=O)N2 (stereo not drawn) | 2 | 3
Cc1cccc(NC(=O)CN2CCN(C(=O)c3oc4ccc(Br)cc4c3C)CC2)c1C | -2 | -3
CC(=O)c1ccc(NC(=O)Cn2nc(C(C)C)c3cnn(-c4ccccc4C)c3c2=O)cc1 | 9 | 5

The results go on:
SMILES | NPYLR7 ag | NPYLR7 ag max-min
Cn1c(SCCN2CCOCC2)nc2scc(-c3ccc(F)cc3)c2c1=O | 7&2 | 4&6
Cc1c(NC2(C#N)CCCC2)c(=O)n(-c2ccccc2)n1C | -1 | -2
COc1ccc(C(=O)Nc2ccc(O)c(-c3nc4ccccc4o3)c2)cc1Br | -1 | 6
O=C(Nc1ccc(Cl)cc1)N1CCSC1c1ccc(C(F)(F)F)cc1 (stereo not drawn) | -2 | 8
N#Cc1cccc(CN2C(=O)C3(SCCN3C(=O)c3ccco3)c3cc(F)ccc32)c1 (stereo not drawn) | 18 | 22
CNC(=O)c1nn(CN(C)Cc2ccccc2)c(=O)c2ccccc12 | 10 | 8
CC(OC(=O)c1cc(=O)c2cc(F)ccc2o1)C(=O)Nc1ccnn1C(C)C (stereo not drawn) | 4 | 10
Cc1cc(-n2c(C)cc(C(=O)CSc3nnnn3C3CC3)c2C)no1 | 8 | 10
CC(C)c1cc(Br)c(NC(=O)N2CCC[C@H]2C(=O)N2CCC(C(=O)N3CCOCC3)CC2)c(Br)c1 | 5 | 7
N#CC(C#N)=C1C=C2C=C(N3CCCC3)CCC2CC1 (stereo not drawn) | 90* | 86*
CC1C(C)S(=O)CCN1C(=O)NCc1csc(C(C)(C)C)n1 (stereo not drawn) | -3 | -4
Cc1cc(C)n(CC(C)NCc2cnc3c(C)cccn23)n1 (stereo not drawn) | 9 | 8
COc1ccc(C(=O)Nn2cnc3c(cnn3C(C)(C)C)c2=O)c(OC)c1 | 2 | 1
Cn1c(C(=O)NCc2nnc3n2CCC3)ccc1-c1ccc(F)cc1 | 0 | 4
Cn1ccc2c(cnc3nc(-c4cccnc4)nn32)c1=O | 4 | 8
